Screening data as filed in PubChem BioAssay.
KCNQ2 pot = potentiators of rat KCNQ2 potassium channel. CHO-K1 KCNQ2, FluxOR thallium flux fluorescence; hits give high values. O88943. AID 2239. actives 0.54% (n = 310,000). B-score at 10 µM;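 active = fluorescence ratio B-score at least 3 SD of library B-scores, with initial fluorescence B-score within 3 SD, cut at about 5.3 in these data; same plate scores as AID 2156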;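 also: B-score of peak minus minimum over baseline fluorescence ratio after K+ and Tl+ stimulus; positive B-score means potentiation of KCNQ2 with more thallium influx and brighter signal; only the inactives scoring about 0 or higher are listed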
Target sequence (O88943 whole entry, looked up): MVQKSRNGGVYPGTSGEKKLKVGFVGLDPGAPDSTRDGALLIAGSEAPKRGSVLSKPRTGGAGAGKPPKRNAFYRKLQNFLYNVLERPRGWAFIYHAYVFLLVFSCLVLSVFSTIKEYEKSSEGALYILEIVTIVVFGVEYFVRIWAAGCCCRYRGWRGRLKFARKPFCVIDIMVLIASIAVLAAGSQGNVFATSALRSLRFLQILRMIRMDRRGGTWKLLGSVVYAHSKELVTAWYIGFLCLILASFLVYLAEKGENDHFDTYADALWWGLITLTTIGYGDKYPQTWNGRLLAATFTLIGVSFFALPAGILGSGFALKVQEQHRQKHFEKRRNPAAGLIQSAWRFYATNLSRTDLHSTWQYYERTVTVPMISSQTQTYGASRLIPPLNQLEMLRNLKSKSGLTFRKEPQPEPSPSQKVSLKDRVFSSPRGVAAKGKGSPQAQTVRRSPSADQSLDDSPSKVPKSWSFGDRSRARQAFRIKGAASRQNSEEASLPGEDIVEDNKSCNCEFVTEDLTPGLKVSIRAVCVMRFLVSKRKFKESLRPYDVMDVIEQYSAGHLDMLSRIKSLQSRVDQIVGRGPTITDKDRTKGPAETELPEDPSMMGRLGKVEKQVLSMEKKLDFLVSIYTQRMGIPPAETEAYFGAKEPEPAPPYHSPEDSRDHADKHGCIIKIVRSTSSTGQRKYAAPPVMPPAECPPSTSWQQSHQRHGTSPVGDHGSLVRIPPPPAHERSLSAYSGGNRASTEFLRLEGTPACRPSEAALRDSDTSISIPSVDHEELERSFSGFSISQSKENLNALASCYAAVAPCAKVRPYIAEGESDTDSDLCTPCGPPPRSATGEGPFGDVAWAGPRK
KCNQ2 pot baseline = recorded beside KCNQ2 pot, whose call it bears; B-score; compound at 10 µM; measured here: initial fluorescence intensity artifact check;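 brightness before thallium and not channel activity; 0 = typical well and far values either way flag optical interference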
* = called active by the depositor. An excerpt (hit frequency here may not be typical).

The first 6 compounds (preview)
SMILES	KCNQ2 pot	KCNQ2 pot baseline
C[N+]1(CN2C(=O)C3C4C=CC(C4)C3C2=O)CCCCC1 (stereo not given)	3.2	1.1
CCc1nnc(NC(=O)CSc2nnc(-c3cccnc3)n2CCc2ccccc2)s1	0.49	-0.57
Cc1c(Br)c([N+](=O)[O-])nn1C(C)C(=O)NCc1cccs1 (stereo not given)	0.9	-0.23
COc1cc(C)c(S(=O)(=O)n2c([N+](=O)[O-])cnc2C)cc1C	0.81	-1.3
O=C(O)c1cccc(-c2nnn(Cc3ccccc3)n2)c1	1.5	0.01
COc1ccc(CNC(=S)Nc2cccc(OC)c2)cc1	1.9	-1.2

This part in full (from the top)
SMILES	KCNQ2 pot	KCNQ2 pot baseline
C[N+]1(CN2C(=O)C3C4C=CC(C4)C3C2=O)CCCCC1 (stereo not given)	3.2	1.1
CCc1nnc(NC(=O)CSc2nnc(-c3cccnc3)n2CCc2ccccc2)s1	0.49	-0.57
Cc1c(Br)c([N+](=O)[O-])nn1C(C)C(=O)NCc1cccs1 (stereo not given)	0.9	-0.23
COc1cc(C)c(S(=O)(=O)n2c([N+](=O)[O-])cnc2C)cc1C	0.81	-1.3
O=C(O)c1cccc(-c2nnn(Cc3ccccc3)n2)c1	1.5	0.01
COc1ccc(CNC(=S)Nc2cccc(OC)c2)cc1	1.9	-1.2
CCOC12CC(C)(C)CC(C)(CC3=C1C(=O)CC(C)(C)C3)C2 (stereo not given)	0.18	-1
O=C(CSCc1cnn(-c2ccccc2)c1-n1cccc1)NCc1cccnc1	0.16	1.1
CC(=O)Nc1ccc(S(=O)(=O)Nc2cc(C)cn(Cc3ccc(C)cc3)c2=O)cc1	0.11	-0.07
CCn1c(CNc2ccc(F)cc2)nnc1SCC(=O)N1CCCc2ccccc21	0.04	-0.18
OC(CCN1CCCCC1)c1ccc(-c2ccccc2)cc1 (stereo not given)	1.5	-2.1
Cc1cc(C)cc(-n2nnc(C(=O)NCc3ccccc3)c2N)c1	0.76	1.6
CCn1nc2cc(C(=O)NCc3cc(C(F)(F)F)cc(C(F)(F)F)c3)ccc2c1OC	0.33	-0.52
c1ccc(-c2nccc(-c3ccc4c(c3)OCO4)n2)cc1	0.16	0.94
Cc1cccc(NC(=O)CCCc2ccccc2)c1C	0.37	-0.64
COc1ccc2nc(NC(=O)CS(=O)(=O)c3ccc(C)cc3)sc2c1	0.03	-2.2
CCOC(=O)c1ccoc1CSCC(=O)N1CCN(S(=O)(=O)c2ccc(C)cc2)CC1	0.49	-0.09
CC1CN(C(=O)C2(C)CC2(Cl)Cl)CC(C)O1 (stereo not given)	1.4	-0.29
CCn1nc(Cc2cccc3ccccc23)c(C#N)c1N	0.05	0.52
O=C(Cn1cnc2cc([N+](=O)[O-])ccc2c1=O)Nc1ccc(Br)cc1	0.58	-1.6
Nc1ccc(-n2cc(-c3ccccc3)[nH]c2=S)cc1	0.97	0.86
Cc1ccc(C(=O)n2nc(-c3cccnc3)nc2N)cc1	0.23	0.21
COc1ccc(C(=O)NCc2nnc(SCC(=O)N3CCc4ccccc43)o2)cc1OC	1.1	-1.6
Cc1ccc(C(=O)Nc2ccn(Cc3ccc(F)cc3)n2)o1	0.38	0
CN1C(=O)C(CC(=O)O)S/C1=N\N=C\c1ccc(O)cc1O (stereo not given)	1	0.77
Other structures
SMILES	KCNQ2 pot	KCNQ2 pot baseline
COc1ccc(S(=O)(=O)N2CCC(C(=O)NCc3ccccn3)CC2)cc1OC	0.39	0.16
CC(=O)NC(=S)c1c(N)n(Cc2ccccc2)c(=O)n(C)c1=O	3.2	-0.51
Cn1c(=O)[nH]c(=O)c2c1nc(Br)n2CC(O)COCc1ccccc1 (stereo not given)	0.48	-0.58
COc1cc(NS(=O)(=O)c2ccc(N/C=C\C(=O)c3ccc(F)cc3)cc2)nc(OC)n1	1.1	-0.02
O=C(COc1ccc(C(=O)c2ccccc2)cc1)Nc1ncccc1O	0.11	-0.78
CCC(C)Nc1nc(Cl)nc(NCCOc2ccccc2)n1 (stereo not given)	1.6	1.3
CN1C(=O)/C(=C/c2cccc(Cl)c2)Sc2ccc(C(=O)NCc3cccnc3)cc21	0.55	-0.3
CC(=O)Nc1ccc2nc(NC(=O)COc3ccc(C)cc3)sc2c1	0.89	-0.36
COc1ccccc1NC(=O)CSc1nnc(-c2ccc(C)cc2)o1	0.02	0
Cc1cc(C)n(-c2nc3c(c(=O)n(C)c(=O)n3C)n2C)n1	1.7	-0.67
CCCC(C)c1nnc(NC(=O)CCS(=O)(=O)Cc2ccccc2)s1 (stereo not given)	0.62	-0.42
CCNC(=S)N1CCN(CC(=O)Nc2ccc(OC)cc2)CC1	0.83	-2.4
Cn1c(=NC(=O)C2CC2)sc2cc(F)cc(F)c21	0.75	-0.05
O=C(NCCc1ccccc1Cl)C1CCN(S(=O)(=O)c2cccs2)CC1	0.41	-1
CCCCOC(=O)Nc1nnc(/C=C/c2ccc(OC)cc2)s1	0.21	0.02
CN1CCc2c(sc3c2c(=O)n(-c2ccccc2)c2nnc(SCc4ccccc4)n32)C1	0.18	-0.92
COc1ccc(C(=O)NN2CCOCC2)cc1	0.42	-0.04
CCOc1ccc2ccccc2c1C1NC(=S)N(C)C(C)=C1C(=O)OC (stereo not given)	1.6	-0.78
Cc1c(-c2nn(C)c(=O)c3ccccc23)oc2ccc(F)cc2c1=O	0.18	-0.98
Oc1c(I)cc(Cl)c2cccnc12	2	-1.9
CNS(=O)(=O)c1cc(Nc2ncnc3sccc23)ccc1C	1.5	-0.87
COc1ccccc1CNC(=O)C1CCC(CNS(=O)(=O)c2cccs2)CC1 (stereo not given)	1.6	-0.83
Cc1ccc(-n2nc3c(c2NC(=O)C(C)(C)C)CS(=O)(=O)C3)cc1	1.2	-0.77
COc1ccc(CNC(=O)CN(Cc2ccco2)C(=O)CNS(=O)(=O)c2ccccc2)cc1	0.06	-0.02
CCn1cc(C(=O)NCc2cccc(C(F)(F)F)c2)c(=O)c2ccc(C)nc21	0.1	0.15

Full records, quoted from the list. Order of values: KCNQ2 pot	KCNQ2 pot baseline
Listed for CCn1cc(C(=O)NCc2cccc(C(F)(F)F)c2)c(=O)c2ccc(C)nc21 = 0.1	0.15
Listed for Cn1c(=NC(=O)C2CC2)sc2cc(F)cc(F)c21 = 0.75	-0.05

Further compounds
SMILES	KCNQ2 pot	KCNQ2 pot baseline
O=C(CCn1c(=O)[nH]c2ccsc2c1=O)N1CC(=O)N(CCc2ccccc2)C(=O)C1	0.73	1.1
COc1cc(C)c(Br)cc1S(=O)(=O)NCc1ccncc1	0.5	0.56
CC(C)=CCOc1ccc2c(C)c(CC(=O)N3C[C@H]4C[C@@H](C3)c3cccc(=O)n3C4)c(=O)oc2c1C	1.5	1.7
CNC(=O)c1ccc(-c2ccc(F)cc2)s1	0.04	0.43
CCOc1ccc(NC(=O)CN(C)CC(=O)NC(C)c2ccccc2)cc1OCC (stereo not given)	0.2	-1.7
COc1ccc(Cl)cc1N(CC(=O)NCCSCc1ccccc1)S(C)(=O)=O	2	0.62
O=C(Nc1ccc2c(c1)oc1ccccc12)c1ccc(Br)o1	0.77	-0.08
COc1ccc(Cc2nnc(SC)[nH]c2=O)cc1	0.86	1.4
O=C(OCC(=O)N1CCc2ccccc21)c1ccccn1	0.23	-0.66
CC(=O)Oc1ccc(-c2nc(-c3cccnc3)no2)cc1	3.4	0.6
COCCN1C(=O)c2oc3ccccc3c(=O)c2C1c1ccc(C(=O)OC)cc1 (stereo not given)	1.6	-1.5
NC(=O)CSc1cn(Cc2ccc(F)cc2)c2ccccc12	1.8	-1.2
COc1ccc(CN2CCNC(=O)C2CC(=O)N(Cc2nccn2C)C(C)C)c(OC)c1 (stereo not given)	0.09	0.25
COC(=O)C1=C(C(=O)OC)C(c2cc(Cl)ccc2O)c2sc(=O)[nH]c2S1 (stereo not given)	1.1	-0.02
Cc1ccc(S(=O)(=O)Cc2ccc(C(=O)O)o2)cc1	2	-0.55
C/C(Cc1nnn(-c2cc(C)on2)n1)=N\O	1.2	-0.7
Cc1c(Br)c(C(F)(F)F)nn1CC(=O)NCc1ccco1	0.67	-1.1
CCOc1ccccc1OCC(=O)OCC(=O)NNC(=O)c1ccc([N+](=O)[O-])cc1	0.98	-1.6
COc1cc(C(=O)Nc2ccc(S(=O)(=O)Nc3cnc4ccccc4n3)cc2)cc(OC)c1OC	0.87	-0.05
CC(C)N1CCC(N2CCN(C3CCCCC3)CC2CCO)CC1 (stereo not given)	1	0.2
Cc1ccc(C(=O)N2CCN(c3ccccc3)CC2)cc1S(=O)(=O)N1CCCC1	1.7	-1.1
O=C(NCCc1ccc(Cl)cc1)C1CC(=O)N(CCc2ccccc2)C1 (stereo not given)	0.03	-0.49
CCOc1ccc(-c2c(C(=O)N/N=C/c3ccco3)nnn2-c2nonc2N)cc1	0.19	-0.01
CC(C)C(=O)Nc1ccc(NC(=O)c2ccco2)cn1	0.89	-0.02
CCOc1ccc(-n2c(SCC(=O)O)nc3sc4c(c3c2=O)CCCC4)cc1	2	0.13
Further compounds:
SMILES	KCNQ2 pot	KCNQ2 pot baseline
CCc1cc(=O)oc2c(CN3CCN(C)CC3)c(O)c(Cl)cc12	0.79	-0.93
Cc1ccc(/C=N\NC(=O)Cn2nnc3ccccc32)o1	0.53	-2
Cc1cc(C(=O)CSc2nnc(-c3ccc(Cl)cc3)n2C)c(C)n1CC1CCCO1 (stereo not given)	0.21	0.53
CSc1nc(-c2ccccc2)nc(NC(=O)C(C)C)c1C(C)=O	1.7	0
CCCCn1c(N)c(N(CC(C)C)C(=O)c2cc(Cl)nc3ccccc23)c(=O)[nH]c1=O	0.64	-0.52
COC(=O)c1ccc(/C=N/NC(=O)C(=O)NCc2ccccc2)cc1	0.02	0.67
Cc1cccnc1NC(=O)Cn1nc(C)c([N+](=O)[O-])c1C	0.04	-0.1
N#Cc1cc2c(nc1SCc1ccncc1)CCC2	1.3	-2
Nc1nc2n(n1)C(c1ccco1)CC(c1ccc(F)cc1)N2 (stereo not given)	0.1	0.84
CC(=O)c1cccc(NC(=O)Nc2ccc(C)cc2)c1	1.5	-0.02
COc1ccc(S(=O)(=O)N(C)CC(=O)N2CCC(C)CC2)cc1Cl	0.13	-1.4
CC(C)C(NC(=O)c1ccccc1)c1nnc(SCC(=O)Nc2nccs2)n1C (stereo not given)	0.03	-0.3
CC(=O)NNc1cccc(Cl)n1	1.2	-0.99
CC1CCN(S(=O)(=O)c2cccc(C(=O)Nc3nccs3)c2)CC1	0.24	-0.4
CCn1c(CCNC(=O)c2ccc(OC)c(OC)c2)nc2ccccc21	0.03	0
COc1nnc(-c2ccc(N3CCOCC3)c(NC(C)=O)c2)c2ccccc12	0.32	-1.6
COC(=O)Nc1ccc([N+](=O)[O-])cc1OC	1.7	-0.01
COC(=O)Cn1c(=NC(=O)C2CC2)sc2c(C)cc(C)cc21	1.5	-0.24
CC1CCN(C2=NN3C(=N)/C(=C\c4ccc(OC(=O)c5ccco5)cc4)C(=O)N=C3S2)CC1	0.25	0.12
O=c1c2sccc2[nH]c(=S)n1Cc1ccccc1	0.81	1.4
Cc1ccc2nc(SCC(=O)NC3CCCC3)[nH]c2c1	0.9	0.22
COc1ccccc1/C=C(\C)C(=O)c1c(C)cc(C)[nH]c1=O	0.68	0.14
CC(C)C(=O)NNC(=O)c1cc2sccc2s1	0.16	0.55
COc1ccccc1C/C(N)=N/OC(=O)c1ccco1	2.2	0.83
Nn1c(SCC(=O)Nc2nc3ccccc3s2)nncc1=O	1.8	-3.5

Part of the list above in order of molecular weight, falling:
SMILES	KCNQ2 pot	KCNQ2 pot baseline
COc1ccc(S(=O)(=O)N2CCC(C(=O)NCc3ccccn3)CC2)cc1OC	0.39	0.16
CCOc1ccc(-n2c(SCC(=O)O)nc3sc4c(c3c2=O)CCCC4)cc1	2	0.13
Cc1cc(C)cc(-n2nnc(C(=O)NCc3ccccc3)c2N)c1	0.76	1.6
C[N+]1(CN2C(=O)C3C4C=CC(C4)C3C2=O)CCCCC1 (stereo not given)	3.2	1.1

Other compounds follow:
SMILES	KCNQ2 pot	KCNQ2 pot baseline
COc1ccc(C(=O)N2CCN(c3ncccn3)CC2)cc1[N+](=O)[O-]	0.54	1.2
COc1cc(C2=NOC(C(=O)Nc3cc(C)on3)C2)cc(OC)c1OC (stereo not given)	0.02	0.28
Brc1cccc(OCCCCN2CCCCC2)c1	0.91	-0.49
CC(C)C(=O)Nc1cccc2nsnc12	0.01	-1.6
CCNc1nc(NCC)n2c(SCC(=O)N(CC)C3CCCCC3)nnc2n1	0.74	-2.1
COCCn1c(=O)[nH]c(=O)c2c(C(F)(F)F)cc(-c3cccs3)nc21	0.51	-0.6
O=C(/C=C/c1cccc([N+](=O)[O-])c1)NCc1ccco1	1.1	0.57
CCN1C(=O)[C@H]2[C@@H](c3ccccc3)N3C(=O)N(c4cccc(F)c4)C(=O)[C@@]3(CC(C)C)[C@H]2C1=O	1.9	0.62
CC1(C)CC(=O)C=C(NC2CCCCCC2)C1	0.92	0.09
O=C(c1c(Cl)cccc1Cl)N1CCCCCC1	0.03	-0.11
O=C(CSc1ncccn1)N1CCCC1	0.21	0.13
COc1cc2c(cc1OC)CC(C(=O)NCc1ccccc1)NC2 (stereo not given)	1	0.02
CC(OC(=O)CCCN=C1NS(=O)(=O)c2ccccc21)C(=O)Nc1ccccc1[N+](=O)[O-] (stereo not given)	0.83	2.1
CCc1cc2cc(C)ccc2nc1SCC(=O)NNC(=O)c1ccco1	0.63	-2.4
COC(=O)C1=C(C)Nc2nnnn2C1c1cccs1 (stereo not given)	0.09	-0.05
CSc1cccc(NC(=S)NC(=O)c2cccnc2)c1	1.2	-1.4
COc1ccccc1Nc1nnc(SCC(=O)N2CCCC2)s1	0.35	-0.32
CCc1nc2c(oc3ccccc32)c(=O)[nH]1	1.6	0.06
O=C(c1cccnc1)N1CCN(c2ccc([N+](=O)[O-])cc2Cl)CC1	1.1	1.8
